PABP FP inh: PABP-poly(A) binding inhibition; P11940; PABP-poly(A) RNA binding, fluorescence polarization; inhibition, % at 35 µM; 1% of 290,000 active;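 active means 50% or more with normal probe brightness, or confirmed in later tests; inconclusive means above 50% with abnormal brightness, or retests that disagree; inactive means below 50% or failed in later tests; about a fifth of its hits are not listed in these tables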;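 further: calls also rest on retests at 20 µM and on dose response follow-up; controls were probe without protein and protein plus probe with vehicle; some compounds called inactive have numbers as strong as hits; many hits fall short of the cut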
Rce1 inh: inhibitors of yeast Ras-converting enzyme. Q03530. 0.27% of 290,000 active. calls only. yeast membranes, quenched prenylated peptide cleavage fluorescence. AID 2563;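 active means fall in fluorescence gain of 50% or more versus controls, with final raw signal at or below 3038400; inconclusive means same 50% fall but final raw signal above 3038400; inactive means fall in fluorescence gain under 50%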;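 further: plate controls were neutral control wells for no effect and wells lacking membranes for full effect; tested at 10 µM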
Target sequence (Q03530 whole entry, looked up): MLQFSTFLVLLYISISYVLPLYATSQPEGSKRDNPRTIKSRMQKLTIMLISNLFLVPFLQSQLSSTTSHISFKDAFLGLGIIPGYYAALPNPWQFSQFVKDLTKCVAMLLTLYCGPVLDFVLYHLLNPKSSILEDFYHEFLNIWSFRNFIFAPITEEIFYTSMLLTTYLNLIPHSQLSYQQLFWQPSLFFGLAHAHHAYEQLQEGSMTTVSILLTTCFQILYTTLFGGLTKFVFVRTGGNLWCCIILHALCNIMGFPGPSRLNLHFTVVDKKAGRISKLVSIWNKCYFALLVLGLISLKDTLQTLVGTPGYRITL
CSC inhib: blocks cancer stem cells; 1.1% of 300,000 active; inhibition, % at 7.5 µM; cancer stem cell-like cells viability, luminescence;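 active means mean at 75% or more and at least half the replicates too; inconclusive means mean and replicates disagree; tested in HMLE shEcad cells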;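 further: 0% = median of negative and 100% = median of positive control wells; the first replicate is given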
UUG fidelity: modulators of start codon recognition fidelity in yeast | S. cerevisiae UUG-firefly luciferase reporter, luminescence/redox ratio | activity score, % at 18.7 µM | 0.13% of 350,000 active | AID 602363;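 active means replicate mean at a twofold rise or more, about +100% in these data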;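 further: firefly luciferase made from a UUG start codon reports start codon fidelity; reporter light over untreated wells divided by growth signal over untreated wells; some hits fall short of that in this replicate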
MT1-MMP act inh: MT1-MMP (human) activation inhibition. HT1080 RFP-PRO-GFP cells, GFP/RFP ratio fluorescence, overnight; percent of plate control window, DMSO zero. GFP/RFP ratio change, % at 20 µM. 0.061% of 360,000 active. AID 651647;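 active means GFP/RFP ratio change of at least 30% with cell ATP level not reduced by more than half and red fluorescence within 50% of control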; further: strong numbers were not always called active
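system = RFP-PRO-GFP reporter HT1080 cells | dosing = 20 µM single dose, 1% DMSO | timing = overnight cell settling, then overnight compound exposure, 37 °C, 5% CO2 | read-out basis = GFP/RFP fluorescence ratio | controls = DMSO and RFP-L50D-GFP cell wells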
eIF4H FP inh: inhibitors of RNA binding by human eIF4H; AID 2012; eIF4H fluorescence polarization binding assay; inhibition, % at 35 µM; 0.94% of 290,000 active;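 active means 50% or more with normal probe brightness, or confirmed in later tests; inconclusive means above 50% with abnormal brightness, or retests that disagree; inactive means below 50% or failed in later tests; about a fifth of its hits are not listed in these tables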;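 further: calls also rest on retests at 20 µM and on dose response follow-up; 0% = protein and probe with vehicle and 100% = probe without protein; strong numbers were not always called active; many hits fall short of the cut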
HIV Env fusion: HIV envelope-mediated fusion inhibition | HeLa-JRFL Env/CEM21 cell fusion, luciferase | inhibition, % at 12.3 µM | 1.1% of 360,000 active;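 active means mean replicate inhibition score of at least 50 and every replicate individually at or above 50; inconclusive means only one of the two criteria met; inactive means mean below 50 and not all replicates reaching 50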;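 further: 0% = plate neutral controls and 100% = maraviroc near 300 nM; one replicate is shown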
eIF4H FP inh retest: further read-out of eIF4H FP inh, marked with its call; inhibition, %; compound at 20 µM; confirmation average;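 mean of two retest wells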
PABP FP inh retest: also measured in PABP FP inh; calls as there; inhibition, %; compound at 20 µM; confirmation repeats;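 mean of two retest wells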
MT1-MMP act inh RFP: further read-out of MT1-MMP act inh, marked with its call; RFP signal change, %; measured here: RFP expression control read;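 0 = vehicle wells; hits needed this value within 50% of zero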
* marks the source's active call; other numbers are inactive results; i = inactive; u = inconclusive; x = not tested or not shown. Only part of the results is shown (hit frequency here may not be typical).

SMILES	PABP FP inh	Rce1 inh	CSC inhib	UUG fidelity	MT1-MMP act inh	MT1-MMP act inh RFP	eIF4H FP inh	HIV Env fusion	others
COC(=O)c1ccc2nc(-c3ccc(S(C)(=O)=O)cc3)cn2c1	81.1	i	0.9	2.3	-2.0	-4.5	4.8	-3.9	eIF4H FP inh retest=-2.1;PABP FP inh retest=9.4
CSc1ccc(-c2c(C#N)c(N)nc3c2c(C)nn3-c2ccccc2)cc1	-3.6	i	6.4	-3.7	0.6	-3.5	1.7	32.9
COC(=O)c1ccc(CNC(=O)/C=C/c2cc([N+](=O)[O-])ccc2OC(F)F)cc1	-4.9	i	-4.1	-4.7	-2.3	-3.5	-0.8	6.8
C=CCC1(CC=C)CCCN1C(=O)c1cc(COc2ccc(C)nc2)on1	1.1	i	2.7	-23.8	2.4	-31.7	-13.7	-2.2
COC(=O)C1=C(N)Oc2c(oc(CO)cc2=O)C1c1ccc(F)cc1 (stereo not given)	-3.1	i	-12.8	-18.5	-0.5	1.7	-4.1	-1.8
CCOC(=O)C(C(=O)Nc1ccccc1)C1CCCCC1 (stereo not given)	-4.2	i	3.6	-21.7	-0.3	-2.2	-4.6	9.6
CC(=O)c1cccc(-n2c(CCC(=O)O)ccc2-c2cccs2)c1	26.8	i	3.3	-4.2	-4.9	3.1	10.3	x
CCOC(=O)N1CCN(C(=O)CSc2nc(=O)n3cccc(C)c3n2)CC1	x	i	-10.0	-9.7	3.3	2.9	x	-4.9
CCCNC(=O)CSc1nnc(C)s1	-5.8	x	-7.5	-8.6	2.1	1.8	1.7	15.4
CC1CCC2(CC1)NC(=O)N(CC(=O)Nc1cccnc1Cl)C2=O (stereo not given)	x	x	-15.6	-12.6	-5.9	-0.9	x	x
CC(=O)Oc1ccccc1C1OCCN1C(C)=O (stereo not given)	7.5	i	-10.8	-5.9	-4.6	-0.8	1.6	-4.8
COc1ccc(C2(c3ccc(OC)cc3)NC(=O)NC2=O)cc1	2.3	i	-3.8	-2.3	-0.6	1.1	-2.8	-11.6
COc1ccc(/C=N/Nc2ncc(C(F)(F)F)cc2Cl)c(OC)c1OC	-1.6	i	-12.2	-11.6	4.1	3.4	-2.7	x
Cc1ccc(SCc2nc(N)nc(Nc3ccccc3C)n2)c(C)c1	5.9	i	4.6	x	1.6	-2.6	1.8	5.2
COc1ccccc1NC(=O)NC1(C(=O)N2CCC(O)CC2)CCCCC1	3.8	i	-9.2	-13.4	-9.7	2.8	9.1	x
Cc1ccc(-c2nnn(CC(=O)N(CCN3CCOCC3)C(C(=O)NC(C)(C)C)c3ccc(C)o3)n2)cc1 (stereo not given)	-0.6	i	-15.7	-8.4	-2.4	3.2	3.8	-5.2
CC(C)CCNC(=O)C(Cc1ccccc1)NS(=O)(=O)c1ccc2c(c1)c(=O)n(C)c(=O)n2C (stereo not given)	13.4	i	-2.9	0.7	-3.2	1.5	1.8	-10.6
Cc1ccccc1NC(=O)c1cccc2nccnc12	-5.3	i	x	-4.9	-6.2	-1.5	0.2	-115.0
Cc1ccc(S(=O)(=O)N(C)C)cc1NC(=O)COC(=O)CCCOc1ccccc1	-6.9	i	2.8	-20.9	-1.7	1.2	-10.1	x
COc1cc(/C=C(/Sc2nnc(-c3ccc(F)cc3)o2)C(=O)O)ccc1OC(F)F	16.3	i	-2.2	1.8	1.8	-1.7	1.7	-4.9
CCCN1C(=O)c2ccccc2NC1c1ccc(Cl)cc1 (stereo not given)	9.7	i	0.2	-18.3	-2.0	-2.6	0.7	32.9
Cc1cccc(C)c1NC(=S)N1CCC(N(C)CC2CCCO2)CC1 (stereo not given)	6.6	i	x	-7.5	0.6	-1.9	-0.3	-6.0
CCOc1ccc(C(c2c(NC(=O)c3ccccc3)sc(C)c2C)N2CCN(C)CC2)cc1 (stereo not given)	-2.4	i	41.8	x	-2.9	-3.2	4.6	8.6
Cc1cc(O)c(NC(=S)NC(=O)c2ccc(-c3ccc(Cl)cc3)o2)cc1C	-6.3	i	4.6	x	5.4	-2.3	23.6	x
COc1ccc(S(=O)(=O)N2CCCCC2)cc1NC(=O)c1cc([N+](=O)[O-])ccc1N1CCOCC1	x	i	2.6	x	-4.2	-4.6	x	17.3
COc1cccc(OC)c1C(=O)Nc1nnc(C(C)C)s1	-6.6	x	x	-11.0	-1.9	-1.2	-3.0	x
O=C(CCCn1c(=S)[nH]c2cc3c(cc2c1=O)OCO3)N1CCN(c2ccccn2)CC1	-9.2	x	x	-3.8	-2.9	-6.9	-2.3	7.4
COC(=O)c1cccc(S(=O)(=O)N2CCCCC2)c1	-9.6	i	-3.4	-3.1	-0.1	-0.9	-4.9	5.4
Cc1ccc(N2C(=O)C3CCCN3C2=S)c(C)c1 (stereo not given)	x	x	5.6	-15.4	1.4	0.1	x	x
COc1ccc(CNC(=O)c2cnc3cc(C)ccn3c2=O)cc1	-2.4	i	17.0	-2.9	-0.3	3.8	-5.9	-13.4
COc1ccc(NC(=O)c2nn(C)c(C(=O)Nc3ccc(OC)cc3)c2[N+](=O)[O-])cc1	2.6	i	-6.2	-8.2	1.0	3.5	-12.8	2.4
Cc1cc(=O)[nH]c2c1c(C)nn2C(C)(C)C	-1.2	i	-5.8	-18.3	0.8	1.1	-10.2	-3.9
O=C1c2ccccc2NC(c2cccnc2)N1c1ccccc1F (stereo not given)	7.0	i	4.9	x	2.5	-2.9	2.9	x
O=C(Cc1cccs1)Nc1cccc(-c2nc3ccccc3o2)c1	-1.1	i	-18.6	-17.1	4.1	-5.8	-1.5	-127.6
CCOc1ccc(NC(=O)CSc2nc3ccccc3nc2N2CC(C)OC(C)C2)cc1 (stereo not given)	5.5	i	5.8	-14.2	-4.1	-3.4	-4.2	27.4
CCN1CCS/C1=C/C=C/C1=[N+](CC)CCS1	3.0	i	40.0	-9.7	-12.4	-21.8	-8.3	x
CC(C)(C)NC(=O)CC1C[C@H](C(=O)N2CCOCC2)[C@@]2(C)c3[nH]c4ccccc4c3CCN2C1=O (stereo not given in full)	x	x	-14.3	11.7	-1.0	5.9	x	-18.2
O=C1c2ccccc2C(=O)N1OCc1ccccc1[N+](=O)[O-]	-6.6	i	-11.6	x	-1.9	1.9	-8.4	-4.0
Cc1onc(-c2ccccc2Cl)c1C(=O)NC(=S)Nc1ccccc1F	-0.7	i	-2.8	x	-5.5	-3.0	-3.8	25.3
CC1(C)CC(=O)C2=C(C1)OC(N)=C(C#N)[C@@H]2c1ccccc1[N+](=O)[O-]	u	i	-9.1	-12.4	-53.6	6.5	u	-3.7
COCCN(C(=O)COC(=O)c1c(-c2ccccc2)noc1C)c1c(N)n(Cc2ccccc2)c(=O)[nH]c1=O	-11.6	i	-5.7	1.6	-5.2	-1.9	0.3	-29.5
COc1ccc2cc(C(c3nnnn3CCc3ccccc3)N3CCCC(C)C3)c(=O)[nH]c2c1 (stereo not given)	11.8	i	5.6	-17.7	-5.9	-4.4	-10.4	x
CCCCOc1ccc(CSC(=N)N)cc1Cl	-5.2	i	21.6	-10.3	-4.8	-6.1	-11.4	2.7
C[C@H](CO)N1C[C@H](C)[C@@H](CN(C)S(=O)(=O)c2cccs2)Oc2ccc(NS(=O)(=O)c3ccccc3)cc2CC1=O	x	x	x	-12.8	6.2	5.9	x	-33.3
CCOC(=O)C(=O)NCC(c1cccs1)S(=O)(=O)c1ccc(C)cc1 (stereo not given)	x	i	-10.9	-25.8	-3.2	1.3	x	-7.8
N#Cc1c(SCC(=O)Nc2nccs2)sc2c(O)cc(=O)[nH]c12	37.8*	x	-2.7	-21.3	-0.9	-3.3	68.4*	-24.4	eIF4H FP inh retest=79.6*;PABP FP inh retest=85.6*
O=c1c2ccccc2nc2n1CC/C2=C\N1CCN(c2ccc([N+](=O)[O-])cc2)CC1	x	i	-6.8	-8.9	x	x	x	-45.6
O=C(NNc1ncnc2c1cnn2-c1ccc(F)cc1)c1cccs1	1.7	i	-6.3	-10.7	4.6	3.5	-23.7	2.2
COC(=O)C1=C(C)N(CC2CC2)C(=O)N[C@H]1c1ccc(Br)cc1	9.4	x	14.5	x	x	x	-12.0	77.5*
O=C(O)CCC(=O)Nc1nc2nccc(-c3ccccc3)n2n1	7.6	i	-12.3	-7.3	1.1	1.2	-9.8	-18.0
(listing goes on)
SMILES	PABP FP inh	Rce1 inh	CSC inhib	UUG fidelity	MT1-MMP act inh	MT1-MMP act inh RFP	eIF4H FP inh	HIV Env fusion	others
Cn1c(/C(C#N)=C(\O)c2ccc([N+](=O)[O-])cc2)nc2ccccc21	-4.2	i	-8.5	x	1.1	-3.2	43.7	-13.1
COc1ccc(NC(=O)CS(=O)CC(=O)Nc2ccc(-n3cnnn3)c(C)c2)cc1 (stereo not given)	-1.4	i	-4.8	4.5	0.7	0.8	-9.4	-2.3
CC(C)(C)n1nc2c(c1NC(=O)c1ccc(Cl)c([N+](=O)[O-])c1)CS(=O)(=O)C2	3.6	i	-2.3	-4.4	x	x	-11.7	5.1
CC(C)(C)S(=O)(=O)N1C[C@@H]2CC/C=C\C/C=C\2[C@H]1CCO	x	x	x	-20.5	-4.3	-4.3	x	20.2
O=C(Cn1nc(C(=O)O)c2ccccc2c1=O)Nc1ccccc1C(F)(F)F	-2.8	i	-5.9	-5.8	0.4	6.1	-8.4	-2.6
CCOc1ccc(NC(=O)CN(C)C(=O)CN2C(=O)C3CC=CCC3C2=O)cc1OCC (stereo not given)	x	i	-12.9	x	-1.3	2.9	x	7.8
O=C(/C=C/c1ccc(Cl)cc1Cl)N(Cc1ccc(Cl)cc1)C1CCS(=O)(=O)C1 (stereo not given)	-0.3	i	17.5	0.7	1.1	-7.1	-0.2	2.9
Cc1[nH]n(-c2ccccc2)c(=O)c1N=Nc1cccc(S(=O)(=O)N2CCOCC2)c1	-2.4	i	25.2	x	5.9	-5.2	-12.9	10.3
O=C(CCN1C(=O)/C(=C/c2cccs2)SC1=S)NC1=NCCS1	-7.0	x	10.8	x	2.5	2.7	2.9	-38.4
Cc1ccc(CN2CC(C(=O)Nc3ncccc3C)CC2=O)cc1 (stereo not given)	8.8	i	-15.7	-12.3	0.8	5.2	-11.1	9.1

The final 2 records of the part before come first, to join the parts:
SMILES	PABP FP inh	Rce1 inh	CSC inhib	UUG fidelity	MT1-MMP act inh	MT1-MMP act inh RFP	eIF4H FP inh	HIV Env fusion	others
O=C(CCN1C(=O)/C(=C/c2cccs2)SC1=S)NC1=NCCS1	-7.0	x	10.8	x	2.5	2.7	2.9	-38.4
Cc1ccc(CN2CC(C(=O)Nc3ncccc3C)CC2=O)cc1 (stereo not given)	8.8	i	-15.7	-12.3	0.8	5.2	-11.1	9.1
O=C1SCC(c2ccc(Cl)cc2Cl)=NN1Cc1nnc(-c2ccccc2)o1	-4.5	i	24.9	-13.8	-4.1	0.5	3.5	-4.8
Cc1ccc(S(=O)(=O)NCC(=O)N(CC(=O)NCC2CCCO2)Cc2ccccc2)cc1 (stereo not given)	-5.5	i	-5.5	-4.5	4.5	4.7	6.8	x
CCc1ccc(C(=O)Nc2ccc(OC)c(S(=O)(=O)N3CCOCC3)c2)cc1	-6.1	i	-9.9	x	10.5	-19.9	-3.7	25.6
CC1(C)Cc2c(cnn2-c2ccc(F)cc2)C(NC(=O)c2cnccn2)C1 (stereo not given)	-2.0	i	2.3	-16.7	-1.0	-2.5	-1.2	16.1
O=S1(=O)CC(N2CCCCC2)CN1C1CCCCC1 (stereo not given)	x	x	x	-10.3	0.2	3.0	x	-2.3
C/[N+]([O-])=C/c1c(OCc2ccc(Cl)cc2Cl)ccc2ccccc12	0.3	i	-6.3	x	-1.8	-8.5	2.7	-19.0

Screening results (PubChem)
